TRPML1 blocker = blocks the human TRPML1 channel | TRPML1-inducible cells, Ca2+ dye fluorescence, FDSS; hits give low values; inhibition of EC80 agonist-evoked calcium signal | activity change, negative = inhibition, % (concentration not given with the values) | 390,000 compounds, 0.02% hits | AID 624415; in the data active means activity change below about -50%; inconclusive means about -30% to -50%; inactive means above about -30%;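 note: stimulus is agonist 54-4 at its EC80 concentration; % is set by controls: 0 for no effect and ±100 for the full control effect; the text of the record puts the active cut at -80%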
Target sequence (Q9GZU1 whole entry, looked up): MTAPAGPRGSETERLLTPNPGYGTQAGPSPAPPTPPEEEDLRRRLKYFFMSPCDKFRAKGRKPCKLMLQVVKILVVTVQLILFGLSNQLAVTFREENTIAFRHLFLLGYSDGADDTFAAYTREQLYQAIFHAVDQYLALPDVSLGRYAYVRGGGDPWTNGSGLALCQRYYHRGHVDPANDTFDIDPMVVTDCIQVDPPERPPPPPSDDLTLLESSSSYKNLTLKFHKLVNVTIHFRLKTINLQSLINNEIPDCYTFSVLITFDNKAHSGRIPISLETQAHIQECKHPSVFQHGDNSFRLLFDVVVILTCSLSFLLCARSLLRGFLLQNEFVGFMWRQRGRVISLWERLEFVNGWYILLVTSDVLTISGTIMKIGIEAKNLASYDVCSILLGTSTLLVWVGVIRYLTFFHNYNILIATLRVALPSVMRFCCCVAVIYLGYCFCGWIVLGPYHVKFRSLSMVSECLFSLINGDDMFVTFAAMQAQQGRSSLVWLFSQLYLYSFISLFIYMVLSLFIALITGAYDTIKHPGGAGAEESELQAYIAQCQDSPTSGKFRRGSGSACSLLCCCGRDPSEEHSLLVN
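Tet-induced TRPML1-DL cells loaded with Ca8 no-wash calcium dye were read kinetically on FDSS. Compound addition was followed by EC80 agonist 54-4 (4 uM final); inhibition was read over 110 s.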
PINK1 modulator = PINK1 expression modulation; PINK1 immunofluorescence, high-content cytometry, 24 h; Potency, µM (highest dose often 76.6 µM), for inactives: at the top dose activation (PINK1 increase), most hits filed as activators; 410,000 compounds, 0.2% hits; active = well fitted activation curve with a large enough effect; inconclusive = small, poorly fitted or top-dose-only effect; inactive = flat fitted curve, though single readings scatter; cell line not stated here;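 note: potency is the fitted concentration of half-maximal effect; % of control where 0% means no effect; nearly all actives have a fitted effect of over 65% in size; a mitochondrial uncoupler was the plate control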
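Decision-based qHTS: stable cells, 24 h exposure to five compound concentrations, CCCP as control. Fixed cells stained for PINK1 plus nuclear, mitochondrial and cell markers, cytometer read.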
Six1-Eya2 blk = inhibitors of human Six1/Eya2 interaction | AlphaScreen GST-Six1/His-Eya2 binding, biochemical; hits give low values; control for the full effect not named in the record | activity change, % (test concentration not listed) | 360,000 compounds, 0.56% hits | Q15475+O00167 | AID 651725; in the data active = activity change below about -65%; inconclusive = about -30% to -65%; inactive = above about -30%; note: % is set by controls: 0 for no effect and ±100 for the full control effect
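AlphaScreen with GST-Six1 and His-Eya2 (5X mix: 250 nM and 500 nM), glutathione donor and nickel acceptor beads; buffer 50 mM Tris pH 8.0, 300 mM NaCl, 1 mM TCEP; 1 h at 37 C in the dark.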
TRPML1 agonist = human mucolipin-1 channel agonism; Q9GZU1; TRPML1-expressing cells, Ca2+ dye fluorescence, FDSS; host cell line not named in the record; reference of the full effect not given here; activation, % (no concentration beside the values); 410,000 compounds, 0.12% hits; in the data active = activation above about 50%; inconclusive = about 30% to 50%; inactive = below about 30%; note: 0% is about no effect; the text of the record puts the active cut at 80%
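Tetracycline-induced TRPML1-DL cells are seeded and incubated overnight before loading with a no-wash Ca2+ dye and quencher. Agonist activity is taken from the 110 s fluorescence read following compound pin-transfer on an FDSS, before EC80 54-4 challenge.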
D2 ag = activates the human D2 dopamine receptor; P14416; DiscoveRx PathHunter D2 beta-arrestin, luminescence, 90 min; 100% = 57 uM dopamine signal; activation, % (no concentration beside the values); 360,000 compounds, 0.084% hits; in the data active = activation above about 40%; inconclusive = about 15% to 40%; inactive = below about 15%; note: compound concentration not given in the record; the text of the record calls up to 30% inactive
Target sequence (P14416 whole entry, looked up): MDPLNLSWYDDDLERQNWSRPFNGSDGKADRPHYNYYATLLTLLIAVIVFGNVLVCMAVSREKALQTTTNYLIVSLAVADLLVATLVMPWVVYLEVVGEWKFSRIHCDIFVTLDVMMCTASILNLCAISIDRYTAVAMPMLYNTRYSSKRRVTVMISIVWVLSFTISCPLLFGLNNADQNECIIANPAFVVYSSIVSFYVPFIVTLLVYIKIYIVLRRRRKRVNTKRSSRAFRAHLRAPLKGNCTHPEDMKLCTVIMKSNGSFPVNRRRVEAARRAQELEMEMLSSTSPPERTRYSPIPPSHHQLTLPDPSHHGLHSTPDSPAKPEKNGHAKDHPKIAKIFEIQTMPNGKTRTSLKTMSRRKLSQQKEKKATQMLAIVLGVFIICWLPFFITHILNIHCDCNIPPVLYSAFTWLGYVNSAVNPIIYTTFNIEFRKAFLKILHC
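Agonist mode: compounds alone added to overnight-plated D2 PathHunter cells for 90 min at 37 C, with 57 uM final dopamine (EC100) defining full response. Beta-arrestin recruitment detected by chemiluminescent reagent, read after 1 h at ambient temperature.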
CtBP-E1A blk = blocks the CtBP interaction with E1A. AlphaScreen GST-E1A/His-CtBP binding, 1536-well; hits give low values; control for the full effect not named in the record. activity change, % (test concentration not listed). 340,000 compounds, 0.49% hits. AID 651724; in the data active means activity change below about -65%; inconclusive means about -30% to -65%; inactive means above about -30%; note: % is set by controls: 0 for no effect and ±100 for the full control effect
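Protein mix (5X: 125 nM each GST-E1A, His-CtBP) was incubated with pinned compound 2 h at 37 deg C in dark, in 50 mM Tris pH 8.0 buffer with 300 mM NaCl. Glutathione donor and nickel acceptor beads followed; AlphaScreen signal read after 1 h.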
Active calls of the source: *; ? = inconclusive; / = not tested or not shown; & = joins results of further samples; [ ] = dose if it differs, or a comment. Rows were taken by chance; 1% or so of the library scored in one or more.

SMILES	TRPML1 blocker	PINK1 modulator	Six1-Eya2 blk	TRPML1 agonist	D2 ag	CtBP-E1A blk
Cc1csc2ncnc(N3CCN(C(=S)Nc4ccc(F)cc4F)CC3)c12	7.4	-1.1%	-16.5	-0.2	-1.2	-14.6
CCCCS(=O)CC(O)COCC (centres undefined)	1.7	?	7.0	0.7	-2.8	0.7
Cc1cccc(N2CCN(C(=O)Cc3ccc(-n4c(=O)[nH]c5ccsc5c4=O)cc3)CC2C)c1 (centres undefined)	0.7	-1.9%	-5.6	-0.4	0.2	5.0
O=C(NCCc1csc(-c2cccnc2)n1)c1ccccc1	-8.7&31.9	-0.2%&0.6%	-2.3	1.3&0.0	-5.0	-4.3
COc1ccc(-n2nnnc2SCC(=O)c2cccc(OC)c2)cc1	-2.3	2.8%[38.3 µM]	3.7	0.2	-0.6	10.1
CCOc1cc(NC(=O)C2CC2)c(OCC)cc1NC(=O)CCn1nnc2ccccc21	11.4	8.9%	0.0	1.1	-0.3	6.9
Cc1c(NC(=O)c2ccc(-c3ccccc3)cc2)cccc1C(=O)O	/	-0.6%	0.6	/	0.2	3.1
CCOC(=O)c1cnc2c(cnn2C)c1NCCCn1ccnc1	31.2	3.0%	-7.8	0.2	7.8	0.5
CCN(CC)C(=O)CSc1ncnc2sc(-c3ccccc3)cc12	13.0	/	2.0	1.5	-0.6	14.7
Fc1ccc(CN2C3=NCCCN3c3ccccc32)cc1	10.5	0.0%	2.8	0.1	-2.1	3.6
CCc1nc2c(OCC3COc4ccccc4O3)cccn2c1N(C)C(=O)c1cccs1 (centres undefined)	/	1.4%	-3.7	-0.7	-3.3	-6.9
Cc1cccc(CSc2nc3c(c(=O)n2C)SCC3)c1	11.2	0.0%	-24.0	1.4	3.8	-22.0
COc1ccc(/C=N/NC(=O)C(C)Sc2ccccn2)cc1[N+](=O)[O-] (centres undefined)	16.6	1.9%	-0.8	-0.2	0.2	0.8
CC1=CC2(C#N)C3(N=C(N)C2(C#N)C(c2ccccc2)N1)OCCO3 (centres undefined)	1.7	1.3%	3.0	0.0	0.0	-0.1
CCC(=O)N1CCc2cc(CNC(=O)c3ccc(OC)cc3)ccc21	-12.2	-0.7%	/	2.4	/	/
COc1ccccc1-c1nc(COc2ccc(Cl)cc2Cl)no1	2.3	1.5%	-10.7	1.0	-1.5	23.3
COc1cccc(CN2CC(C(=O)NCCOc3ccccc3F)CCC2=O)c1 (centres undefined)	-8.5	-1.2%	1.6	0.1	-4.1	6.4
CC(C)NC(=O)CN1C(=O)COc2ccc(S(=O)(=O)N3CCCCCC3)cc21	13.2	-0.1%	/	-0.4	/	/
Cc1cc(Nc2ccccc2C(=O)O)n(-c2ccc([N+](=O)[O-])cc2)n1	7.3	-0.3%	-81.4*	-1.0	3.1	/
COc1ccc(C)cc1NC(=O)C1CCN(S(=O)(=O)c2c(C)noc2/C=C/c2ccco2)CC1	11.1	2.5%	/	-0.2	/	/
CCC(=O)NC(Nc1sc2c(c1C(=O)OC)CCC2)C(Cl)(Cl)Cl (centres undefined)	-7.0	?	-10.7	0.2	-7.0	0.0
CCOc1ccc(-c2cc(C(=O)O)c3ccccc3n2)c(OCC)c1	24.7	6.8%[38.3 µM]	-1.0	0.1	-2.1	-4.3
Cc1ccc(S(=O)(=O)c2ccc([N+](=O)[O-])cn2)cc1	-17.2	0.6%	8.6	0.1	-6.7	6.4
O=C1c2ccccc2NC2(CCCC2)N1NS(=O)(=O)c1ccccc1	13.7	0.1%	15.0	-0.2	4.1	0.9
Cc1ccc(NC(=O)CSc2nnc(-c3ccc([N+](=O)[O-])cc3)o2)c(C)c1	3.2	-0.8%	/	2.6	/	/
SMILES	TRPML1 blocker	PINK1 modulator	Six1-Eya2 blk	TRPML1 agonist	D2 ag	CtBP-E1A blk
O=C1C=C(c2ccc(Cl)cc2)OC2(CCCC2)O1	17.9	-0.3%	10.9	1.2	-2.6	9.6
Cn1ccc2ccc(C3=CC(=O)C[C@H](c4ccc(F)cc4)C3)cc21	15.4	16.2%	-10.7	-0.5	-3.0	-7.1
COc1ccc(OC)c(CN2CCC(Cc3ccccc3)CC2)c1	-0.9	0.3%	-16.5	0.3	-4.1	-13.4
NC1=NC[C@@H](Cc2ccc(O)cc2)N1CCc1cccc2ccccc12	63.6	-0.2%	-13.2	0.1	2.1	/
CCOc1ccccc1NC(=O)C1=C(C)Nc2ncnn2C1c1ccc(C)o1 (centres undefined)	-4.4	-4.2%	/	0.5	/	/
O=C(CSc1nc(-c2ccco2)cc(C(F)(F)F)n1)NCCCn1ccnc1	-4.2	2.4%	4.2	0.1	-0.9	-2.8
CCCC(=O)Nc1nnc(SCC(=O)N2C(C)CCCC2C)s1 (centres undefined)	17.2	1.6%	-1.5	-0.4	-1.2	0.4
Cc1cccc(-n2c(C)cc(C(=O)NC3CCCCC3)c2C)c1	51.8	1.7%	1.9	1.8	-0.4	10.3
NC(=O)C1CCN(C(=O)/C=C/c2cccc(Br)c2)CC1	0.9	0.7%	7.5	-0.6	-1.2	1.0
CCCCCOc1ccc(/C=C/C(=O)NCCc2nc3ccccc3[nH]2)cc1OC	-0.9	5.5%	3.5	6.3	2.6	-1.7
CCC1OC(=O)C(C)C(OC2C[C@@](C)(OC)C(O)C(C)O2)C(C)C(O[C@@H]2OC(C)CC(N(C)C)C2O)[C@](C)(O)CC(C)C(=NOCOCCOC)C(C)C(O)[C@]1(C)O (some centres undefined)	-14.8	0.6%	1.8	-0.5	-3.1	5.7
Cc1c(Cl)cccc1NC(=O)CSc1nccn1C	10.7	0.8%	-2.5	-0.7	-3.7	-5.5
Cc1ccc(SC(C)C(=O)NCCC2=CCCCC2)cc1 (centres undefined)	1.8	-2.6%	9.5	0.2	-4.9	1.1
O=C(O)c1ccccc1C(=O)Nc1ccc(Oc2ccccc2)cc1	-2.9	0.1%	2.9	2.0	-22.6	-23.4
O=C(Cn1nc(C(=O)O)c2ccccc2c1=O)c1cc(F)ccc1F	/	1.2%	2.0	/	-13.6	10.1
COC(=O)C1=C(C(=O)OC)[C@]2([C@@H]3CC=CCN[C@@H](Cc4ccccc4)C(=O)N3Cc3ccccc3)C=C[C@H]1O2	6.1	-1.5%	-14.0	2.3	-3.9	-12.7
CCN1C[C@@H]2[C@@H]3C(=O)N(Cc4ccccc4)C(=O)[C@@H]3[C@](CC)(C1=O)N2C(=O)c1ccc(Cl)c(Cl)c1	-9.9	0.0%	10.3	0.2	1.0	0.0
O=C(COC(=O)c1ccc(Br)cc1)NCC1CCCO1 (centres undefined)	-2.0	0.3%	-9.1	-0.3	-2.6	8.1
O=C(C#Cc1ccccc1)Nc1ccc(F)cc1	6.8	-1.5%	1.1	-0.1	0.3	-0.6
O=C(O)C(Cc1c[nH]c2ccccc12)NS(=O)(=O)c1cccc2nsnc12 (centres undefined)	-2.3	1.8%	2.9	-0.6	-0.4	1.8
Cc1ccc(CCNC(=O)CCc2cn(Cc3ccccc3C)c3ccccc23)cc1	31.2	1.3%	/	1.4	/	/
COc1ccc(-c2noc(CCC(=O)N(C)c3cc(Cl)ccc3OC)n2)cc1	-11.6	0.9%	/	-1.1	/	/
CCc1cccc(NC(=S)N(CCOC)C(C)c2ccco2)c1 (centres undefined)	13.5	4.3%	0.5	-0.8	-1.8	3.7
O=C(COc1ccccc1[N+](=O)[O-])Nc1ccc(NC(=O)c2cc3ccccc3o2)cc1	25.1	-0.6%	-11.2	-0.3	-0.5	6.5
O=C(Cn1ncc2c3ccccc3n(Cc3cccc(Cl)c3)c2c1=O)NCCCN1CCCCC1	-10.7	1.1%	/	-0.2	/	/
SMILES	TRPML1 blocker	PINK1 modulator	Six1-Eya2 blk	TRPML1 agonist	D2 ag	CtBP-E1A blk
CCC(C)NC(=O)Cn1c(-c2ccccc2)cc(C(C)=O)c1C (centres undefined)	37.2	1.4%	-1.7	0.5	-0.6	/
CN(C)C(=O)COC(=O)c1cccc(CN2C(=O)c3ccccc3C2=O)c1	4.8	0.1%	2.7	-0.9	-1.4	/
O=C(NCc1cccc(F)c1)c1ccc(NC(=O)c2nsc3ccccc23)cc1	8.1	1.1%	/	3.0	/	/
COc1ccc(CC(NC(C)=O)C(=O)NC2CCN(C(=O)c3ccc(Cl)cc3)CC2)cc1 (centres undefined)	19.1	0.7%	7.4	0.5	1.8	-5.0
O=C(COC(=O)c1cc(Cl)cc(Cl)c1)NCCN1C(=O)CSC1=O	3.9	0.6%	-4.7	-0.2	-2.2	-13.4
CC(=O)OC1CCC2C3CCc4cc(OP(=O)(N5CC5)N5CC5)ccc4C3CCC12C (centres undefined)	4.4	10.2%	-4.3	0.6	-4.4	-1.4
COCCNC(=O)C1(C)CCCN(CC(=O)c2ccc(OC)cc2)C1 (centres undefined)	/	1.3%	4.5	-0.7	-3.2	8.4
O=C(C1CCCCC1)N1C[C@H](n2cc(-c3ccc(F)cc3)nn2)[C@@H](O)C[C@@H]1c1ccccc1	1.9	2.9%	5.5	1.0	-2.4	-2.0
COc1ccc(NC(=O)c2cccn(CC=C(C)C)c2=O)cc1	-5.8	4.0%	1.1	0.7	-4.2	1.8
CCc1ccc(CCC(=O)Nc2nccs2)o1	5.9	3.5%	-7.7	0.0	0.6	-3.5
COc1ccc(-c2noc(CSc3nnc(-c4ccccc4)n3C)n2)cc1	-9.5&7.4	1.6%	-3.2	-1.1&3.5	0.2	-7.6
CCN(CC)CCCNC(=O)c1cc(Nc2ccc(OC)cc2OC)nc2ccccc12	5.8	2.0%	-22.5	-0.4	-7.4	/
COCCCN(C(=O)Nc1cccc(Cl)c1)C(C)c1ccccn1 (centres undefined)	8.1	/	1.3	0.0	-4.4	2.7
Cn1c(SCC(=O)NCc2ccco2)nnc1C1CC1	2.3	0.1%	-1.6	0.1	9.9	/
COc1cccc(CNC(=O)CCC2CCCN(c3cc(C)nc(N4CCCC4)n3)C2)c1 (centres undefined)	2.0	0.0%	3.8	-0.2	-0.8	/
CC(=O)Oc1cc(C)cc2oc(=O)cc(-c3ccccc3)c12	3.5	1.6%	2.7	-0.7	1.9	/
CC(C)(C)C(=O)NCCN1C(=O)S/C(=C\c2ccc([N+](=O)[O-])cc2)C1=O	7.3	4.3%	-10.2	0.4	2.8	/
CCCCC(=O)N1CCCC(C)C1 (centres undefined)	-10.6	-0.7%	0.2	-0.6	-4.2	-0.8
COc1ccccc1NC(=O)CSc1nnc(COc2ccccc2C)o1	8.9	-2.9%	5.7	1.1	-4.3	3.1
O=C(Sc1ccccc1)c1cccc(Cn2cc(C(F)(F)F)ccc2=O)c1	0.4	1.9%	1.2	1.0	-2.1	5.4
O=S(=O)(NCCc1cn2ccsc2n1)c1ccc(Cl)cc1	-5.2	0.6%	/	1.9	/	/

Two of the compounds above, with two lines to a compound.
Values in the order – TRPML1 blocker	PINK1 modulator	Six1-Eya2 blk	TRPML1 agonist	D2 ag	CtBP-E1A blk
> Cn1c(SCC(=O)NCc2ccco2)nnc1C1CC1
 : 2.3	0.1%	-1.6	0.1	9.9	/
> COc1cccc(CNC(=O)CCC2CCCN(c3cc(C)nc(N4CCCC4)n3)C2)c1 (centres undefined)
 : 2.0	0.0%	3.8	-0.2	-0.8	/

Screening data deposited in PubChem BioAssay by National Center for Advancing Translational Sciences (NCATS).
